PINK1 expr mod – PINK1 expression modulation. PINK1 immunofluorescence, high-content cytometry, 24 h. AID 624263. hit rate 0.2% among 410,000. Potency, µM (series often up to 76.6 µM), without a hit: at the highest dose activation (PINK1 increase), actives largely listed as activators; active = well fitted activation curve with a large enough effect; inconclusive = small, poorly fitted or top-dose-only effect; inactive = flat fitted curve, though single readings scatter; cell line not stated here;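 further: potency means the concentration at half of the fitted maximal effect; % of control where 0% means no effect; nearly all actives have a fitted effect of over 65% in size; a mitochondrial uncoupler was the plate control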
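Decision-based qHTS: stable cells, 24 h exposure to five compound concentrations, CCCP as control. Fixed cells stained for PINK1 plus nuclear, mitochondrial and cell markers, cytometer read.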
Sfp PPTase inh – blocks B. subtilis Sfp PPTase activity; Potency, µM, for inactives: max response, negative = inhibition, most hits filed as inhibitors; Biochemical Sfp PPTase activity, qHTS; hit rate 3.5% among 310,000; AID 1490; Q9F4F7; active means well fitted inhibition curve with a large enough effect; inconclusive means small, poorly fitted or top-dose-only effect, or another doubt; inactive means no such curve, though single readings can be large or run the other way;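 further: the enzyme is Sfp with the accession as filed and its product quenches rhodamine fluorescence; potency means the concentration at half of the fitted maximal effect; 0% = enzyme reaction without inhibitor and -100% = no enzyme wells; top concentration of the series not given in the record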
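With Hepes-Na pH 7.6 buffer containing 10 mM MgCl2, Sfp (15 nM) modified BHQ-2-YbbR (12.5 uM) using rhodamine-CoA (5 uM). Two reads 30 minutes apart at 525/598 nm yielded each well's rate.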
TRPV1 potentiator – potentiators of human vanilloid receptor 1 (TRPV1). Q8NER1. TRPV1-expressing cells, Fluo-8 calcium influx, capsaicin EC20 potentiation; host cell line not named in the record; control for the full effect not named in the record. potentiation, % at 8.33 µM. hit rate 0.02% among 320,000; active means potentiation above 80%; inconclusive means 30% to 80%; inactive means below 30%; further: 0% is about no effect
Target sequence (Q8NER1 whole entry, looked up): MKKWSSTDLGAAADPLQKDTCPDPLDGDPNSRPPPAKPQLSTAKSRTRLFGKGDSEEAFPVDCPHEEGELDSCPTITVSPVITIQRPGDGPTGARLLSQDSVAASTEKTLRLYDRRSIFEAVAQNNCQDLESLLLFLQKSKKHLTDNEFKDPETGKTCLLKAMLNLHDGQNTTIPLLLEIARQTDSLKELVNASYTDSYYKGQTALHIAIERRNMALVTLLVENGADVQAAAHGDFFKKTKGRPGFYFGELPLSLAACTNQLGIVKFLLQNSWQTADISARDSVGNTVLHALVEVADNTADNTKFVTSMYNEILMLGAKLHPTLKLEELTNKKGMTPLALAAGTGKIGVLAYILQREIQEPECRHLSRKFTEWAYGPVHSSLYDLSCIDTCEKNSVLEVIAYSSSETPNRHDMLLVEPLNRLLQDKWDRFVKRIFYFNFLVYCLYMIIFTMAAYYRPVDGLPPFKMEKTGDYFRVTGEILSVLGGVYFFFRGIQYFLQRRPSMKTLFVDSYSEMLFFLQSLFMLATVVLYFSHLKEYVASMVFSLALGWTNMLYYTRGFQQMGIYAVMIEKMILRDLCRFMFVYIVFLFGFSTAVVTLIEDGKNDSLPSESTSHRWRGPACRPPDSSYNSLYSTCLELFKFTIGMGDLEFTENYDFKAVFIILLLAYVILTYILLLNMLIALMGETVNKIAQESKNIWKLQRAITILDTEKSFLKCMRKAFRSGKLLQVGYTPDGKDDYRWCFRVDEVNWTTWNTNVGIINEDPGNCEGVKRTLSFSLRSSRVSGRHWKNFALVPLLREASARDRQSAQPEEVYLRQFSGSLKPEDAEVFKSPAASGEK
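Cells expressing TRPV1 were dye-loaded with Fluo-8 and read kinetically: 10 s baseline, 3 min after compound (agonist portion), then 2 min after EC20 capsaicin (allosteric enhancer portion). Calcium-bound dye fluorescence at 480/520 nm.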
CtBP-E1A blk – blocks the CtBP interaction with E1A. activity change, % (test concentration not listed). AlphaScreen GST-E1A/His-CtBP binding, 1536-well; active compounds read low; control for the full effect not named in the record. hit rate 0.49% among 340,000. AID 651724; in the data active means activity change below about -65%; inconclusive means about -30% to -65%; inactive means above about -30%; further: on the % scale 0 is the no-effect control and ±100 the full control effect
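AlphaScreen with 125 nM GST-E1A and 125 nM His-CtBP (5X stocks) in Tris pH 8.0, 300 mM NaCl, BSA, Tween 20, TCEP. Compounds preincubated 2 h at 37 deg C, then glutathione donor/nickel acceptor beads added for 1 h at 37 deg C in dark.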
D2 ag – human D2 receptor agonism in beta-arrestin assay; hit rate 0.084% among 360,000; activation, % (concentration not given with the values); AID 624465; DiscoveRx PathHunter D2 beta-arrestin, luminescence, 90 min; 100% = 57 uM dopamine signal; P14416; in the data active = activation above about 40%; inconclusive = about 15% to 40%; inactive = below about 15%; further: compound concentration not given in the record; the text of the record calls up to 30% inactive
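Agonist mode: compounds alone added to overnight-plated D2 PathHunter cells for 90 min at 37 C, with 57 uM final dopamine (EC100) defining full response. Beta-arrestin recruitment detected by chemiluminescent reagent, read after 1 h at ambient temperature.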
D2 potentiator – potentiates the human D2 dopamine receptor allosterically | P14416 | DiscoveRx D2 beta-arrestin cells, luminescence, 90 min; 100% = 57 uM dopamine signal | potentiation, % (test concentration not listed) | hit rate 0.23% among 360,000 | AID 624464; active = potentiation of 50% or more; inconclusive = 30% to 50%; inactive = 30% or less;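 further: compound concentration not given in the record; tested on top of an EC20 dose of dopamine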
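PathHunter beta-arrestin assay in DiscoveRx D2 cells. Compounds were added with an EC20 of dopamine (50 nM final) for 90 min at 37 deg C. Luminescence was read 1 h after detection reagent, with 57 uM dopamine as the EC100 control.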
Six1-Eya2 blk – blocks human Six1 binding to Eya2 | AlphaScreen GST-Six1/His-Eya2 binding, biochemical; active compounds read low; control for the full effect not named in the record | hit rate 0.56% among 360,000 | activity change, % (no concentration beside the values); in the data active = activity change below about -65%; inconclusive = about -30% to -65%; inactive = above about -30%; further: on the % scale 0 is the no-effect control and ±100 the full control effect
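AlphaScreen with GST-Six1 and His-Eya2 (5X mix: 250 nM and 500 nM), glutathione donor and nickel acceptor beads; buffer 50 mM Tris pH 8.0, 300 mM NaCl, 1 mM TCEP; 1 h at 37 C in the dark.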
* marks the source's active call; other numbers are inactive results; ? = inconclusive; . = no result given; & = joins results of further samples; [ ] = remark or other dose.

SMILES,PINK1 expr mod,Sfp PPTase inh,TRPV1 potentiator,CtBP-E1A blk,D2 ag,D2 potentiator,Six1-Eya2 blk
CC1=C(C(=O)OCC2CCCO2)C(c2coc3ccc(Cl)cc3c2=O)C2=C(CCCC2=O)N1 (stereo not given),0.6%,13%,-2,5,-0.8,-26,2
COc1ccc(N)c2c1C(=O)c1ccccc1C2=O,-2.4%,-6%,0,?,-6.9,-20,-11
O=C(Nc1cccc(S(=O)(=O)NC2=NCCC2)c1)c1cc(=O)[nH]c2ccccc12,0.9%,.,8,2,6.2,-3,2
CC(=O)N(C(C)=O)n1c(C)nc2sc3c(c2c1=O)CCCC3,1.0%,14%,-4,.,-5.5,-4,0
Cc1ccc(NC(=S)N2CCCCC2)cc1C,9.4%,18%,-10,4,0.0,-10,4
COC(=O)c1ccc(C(=O)NC2CC(C)(C)Cc3c2cnn3-c2ccc(F)cc2)nc1 (stereo not given),7.1%,3%,-27,11,-2.9,14,0
Cc1c(NC(=O)c2cc(=O)[nH]c3ccccc23)c(=O)n(-c2ccccc2)n1C,2.0%[38.3 µM],1%,0,0,-2.1,5,3
COc1ccc(NC(=O)CSCC(=O)N(C)Cc2ccc(Cl)c(Cl)c2)cc1,3.6%,.,-15,-13,1.4,0,-7
Cc1noc(C)c1COc1ccc(C(=O)N2CCC(C)CC2)cc1,-1.3%,.,-15,-15,6.6,-8,7
CCOc1ccc(CCN2C(=O)C(=O)N([C@@H](Cc3ccccc3)CN3CCC[C@H]3CN3C(=O)C(=O)NC[C@@H]3Cc3ccccc3)C[C@@H]2Cc2ccccc2)cc1,5.1%,.,.,0,.,.,?
O=C(O)CC(CP(=O)(c1ccccc1)c1ccccc1)C(=O)O (stereo not given),-4.4%[38.3 µM],-4%,22,4,2.0,-1,9
O=C(CCC(=O)Nc1ccccc1Cl)N/N=C/c1c[nH]c2ccccc12,0.4%,-9%,-6,-1,-2.1,-8,-16
Cc1cc(-c2ccccc2)cc(=O)[nH]1,-2.7%,.,.,4,2.7,0,0
COc1ccc(Br)cc1C(=O)Nc1nnn(C)n1,-1.1%,7%,5,-2,-6.0,-12,-3
S=C(Nc1ccccc1)N1CCN(C(=S)c2ccccc2)CC1,-0.4%,-6%,12,-4,-9.2,-5,18
CCc1c(C)[nH]c2nc3ccccc3n2c1=O,-0.9%,17%,4,-8,-3.1,-14,-5
CCc1nc(SCC(=O)NCCc2ccccc2)n[nH]1,-1.4%,16%,-16,4,0.5,-14,12
CCOC(=O)CSc1nc2sc(C(=O)O)c(C)c2c(=O)[nH]1,1.9%,13%,-3,-1,-2.0,-8,-7
CC1CCC(NC(=O)c2ccc(COc3ccccc3)o2)CC1 (stereo not given),?,.,-1,-2,-1.2,-4,-7
CC1Cc2ccccc2N1C(=O)C1CCN(S(=O)(=O)Cc2ccccc2)CC1 (stereo not given),-1.3%,7%,-1,1,-2.3,-3,0
CC(=O)OC1OCCOC1NC(=S)Nc1ccc(C)cc1 (stereo not given),-0.2%,3%,9,.,1.9,-10,-4
COc1ccc(OCCC(=O)Nc2nccs2)cc1,0.0%,1%,-3,0,-0.7,-1,-4
COc1cccc(-c2cc(C(=O)NCCN3CCOCC3)no2)c1,5.1%[38.3 µM],24%,2,1,1.0,-14,9
Cc1ccc(NC(=S)Nc2cccc3cnccc23)cc1,-0.1%,45µM*,-10,.,-3.0,?,-8
O=C(OCC(=O)N1CCCC1)c1c(Cl)cccc1Cl,-3.4%,-2%,-3,4,-1.6,-6,-2
COCCCNC(=S)N1CCN(c2nc(C)nc3sc4c(c23)CCCC4)CC1,1.4%,-7%,-3,-6,-1.7,-11,-10
CCNC(=O)C1(C)CCCN(C(=O)c2csc3ccccc23)C1 (stereo not given),1.2%,.,.,-24,-3.9,-15,12
Cc1c(C(=O)Nc2ccc(F)cc2)oc2ccc(S(=O)(=O)N3CC(C)CC(C)C3)cc12 (stereo not given),18%[38.3 µM],-2%,-7,10,-1.9,-3,0
CCc1ccc(NS(=O)(=O)c2ccc(OC)c3ncccc23)cc1,1.6%,5%,10,4,1.2,-4,3
COc1ccc(-c2coc3c(C(=O)NCc4ccc(C(F)(F)F)cc4)cccc23)c(C)c1,5.5%,.,.,6,3.3,-9,1
C=CCNC(=O)c1c(O)c2cccc3c2n(c1=O)CCC3,1.3%,18%,-15,.,-3.2,5,-3
Cc1c(CCO)c(=O)n2c([nH]c3ccccc32)c1C#N,-3.4%,13%,-4,-16,6.6,-1,-16
CC12C(=O)N(c3nccs3)C(=O)C1(C)C1CCC2O1 (stereo not given),3.4%,.,.,-14,-3.6,-14,-12
CCCN1CCN(C(=O)C(NC(=O)c2ccco2)C(C)C)CC1 (stereo not given),0.7%,19%,3,0,1.2,-6,4
CCOCCOCCC(C(=O)OCC)P(=O)(c1ccccc1)c1ccccc1 (stereo not given),2.4%[38.3 µM],12%,30,-1,-2.6,-11,-1
Cc1ccc(C)c(NC(=O)c2cc(-c3ccccc3)nn2-c2ccccc2)c1,1.8%,-13%,1,21,-3.4,-16,13
CCN1C(=O)C(CC(=O)Nc2ccc(OC)cc2)N(CCc2ccc(OC)cc2)C1=S (stereo not given),?,20%,6,8,2.9,-9,-4
O=C(Nc1ccc(Cl)cc1)C1CCCCN1S(=O)(=O)c1ccccc1 (stereo not given),14%,.,.,15,3.0,3,-1
O=C(OCC(=O)N(Cc1ccccc1)Cc1ccccc1)c1ccccc1NCCO,0.3%,.,15,21,7.3,5,2
FC(F)(F)C(F)(F)c1nnc2ccc(-n3ccnc3)nn12,1.4%,21%,11,8,-3.6,3,7
COc1ccc(C(=O)c2sc3nc(C)cc(-c4cccs4)c3c2N)cc1,0.5%,-10%,5,.,1.7,-4,44
COc1cccc(NC(=O)CCS(=O)(=O)c2cc3c(cc2Cl)NC(=O)CO3)c1,0.3%,3%,-5,10,-2.2,20,2
CCc1nc(N2CCCCC2C)c2oc3ccccc3c2n1 (stereo not given),21%[38.3 µM],-29%,-17,4,-0.9,-5,3
CCCC(=O)NC(Nc1ccc(S(=O)(=O)Nc2ncccn2)cc1)(C(=O)OCC)C(F)(F)F (stereo not given),3.0%,16%,-2,3,-2.6,-9,1
CC1CCN(S(=O)(=O)c2ccc(NC(=O)CN3CCN(c4ccccc4)CC3)cc2)CC1,.,13%,2,7,?,9,-3
CC(NCc1ccccc1Cl)C(=O)Nc1ccc(C#N)cc1 (stereo not given),1.7%,15%,5,0,-5.2,0,12
O=C(NC(c1ccc(Cl)cc1)c1c(O)ccc2ccccc12)c1ccccc1 (stereo not given),?,21%,2,-16,-14,-4,-1
CC(C)Nc1ncnc2c1ncn2[C@H]1CN(C2CCCC2)C[C@@H](CO)O1,0.0%,.,.,1,-4.7,-13,1
COc1cccc(-n2nnnc2SCC(=O)Nc2ccccc2OC)c1,6.6%,22%,4,-1,0.3,0,1
Cc1cccc(NC(=O)COc2coc(CN3CCN(Cc4ccccc4)CC3)cc2=O)c1,0.2%,.,1,0,-5.6,-42,-2

Next structures:
SMILES,PINK1 expr mod,Sfp PPTase inh,TRPV1 potentiator,CtBP-E1A blk,D2 ag,D2 potentiator,Six1-Eya2 blk
c1csc(-c2nn3c(C4COc5ccccc5O4)nnc3s2)c1 (stereo not given),3.3%[38.3 µM],7.9µM*,-9,-11,-0.4,0,-5
O=C(Nc1ccc(OC(F)(F)F)cc1)NC1CCC(Oc2ccc(C(=O)O)cc2)CC1 (stereo not given),1.6%,.,-1,1,-1.6,-4,-4
O=C(CSc1nncs1)Nc1cccc2ccccc12,0.4%,.,16,5,0.4,-5,2
COc1ccc(-n2c(=S)[nH]c3cc(C(=O)Nc4cccc(C)c4)ccc3c2=O)cc1,-1.8%,-14%,-13,-19,-4.2,-3,3
CCSc1nc2ccccc2n1C(=O)c1ccc(S(=O)(=O)N2CCCCCC2)cc1,-0.3%,4%,1,6,0.1,-4,15
COc1cccc(CNC(=O)C2CCN(c3nnc(N4CCCC4=O)s3)CC2)c1,0.7%,15%,19,0,-2.9,-3,1
CC(C)[C@H](NC(=O)c1ccccc1F)C(=O)NNC(=O)c1cccs1,0.0%,.,.,.,-4.5,-14,4
C=CC(=O)NC1CC2CCC1(C)C2(C)C (stereo not given),0.3%,1%,3,5,-3.3,-26,0
CCN(CC(=O)NCc1ccc(Cl)cc1)CC(=O)NC1(C#N)CCCC1,0.2%,4%,14,2,-3.8,-5,11
CCOC(=O)c1nc(Nc2ccccc2C)c2ccccc2n1,0.1%&2.6%,7%,-2,-14,3.4,-2,1
Cn1c(NN)nc2sc3c(c2c1=O)CC(C)(C)OC3,-2.3%[38.3 µM],?,-3,-77*,-1.5,4,?
CCOC(=O)N=S(N)(=O)c1ccccc1 (stereo not given),2.2%[38.3 µM],-4%,11,5,-1.5,-5,4
CCN(C(=O)COC(=O)c1cccnc1SC)c1c(N)n(Cc2ccccc2)c(=O)[nH]c1=O,1.2%,.,10,2,0.6,1,2
O=c1[nH]c2c(c(=O)[nH]1)OCN(Cc1ccccc1)C2,-3.1%,.,.,-18,1.6,-10,0
O=C(NC1CC1)C1CCN(S(=O)(=O)c2ccc(Cl)cc2)CC1,4.4%,9%,?,-3,0.5,-5,-2
CC1Sc2ccc(S(=O)(=O)CCC(=O)N3CCCCC3)cc2NC1=O (stereo not given),-0.6%,12%,-3,2,-0.3,-3,3
COc1ccccc1CNC(=O)C1CCN(S(=O)(=O)c2ccc(-n3cnnn3)cc2)CC1,2.6%,17%,15,0,-2.6,-2,-2
Cc1ccsc1C(=O)Nc1n[nH]c(C(F)(F)F)n1,0.8%,5%,28,5,-1.9,-8,-8
CCSc1nnc(NC(=O)C2CCCCC2C(=O)OCC(F)(F)C(F)F)s1 (stereo not given),0.3%[38.3 µM],22µM*,-6,-10,-0.6,-5,-8

Whole records, looked up by structure. Order of screens: PINK1 expr mod	Sfp PPTase inh	TRPV1 potentiator	CtBP-E1A blk	D2 ag	D2 potentiator	Six1-Eya2 blk
COc1ccccc1CNC(=O)C1CCN(S(=O)(=O)c2ccc(-n3cnnn3)cc2)CC1 reads 2.6%	17%	15	0	-2.6	-2	-2
COc1cccc(CNC(=O)C2CCN(c3nnc(N4CCCC4=O)s3)CC2)c1 reads 0.7%	15%	19	0	-2.9	-3	1

From PubChem
